High-throughput results deposited in PubChem BioAssay by several laboratories.
HSV replic up: HSV replication enhancement; HSV replication augmentation in cells, fold increase; maximum fold increase; 220,000 tested, 0.005% active; AID 1956;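 active = peak rise of 1.5-fold or more in the series; tested in PC3 cells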;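 note: first round at 10 µM; read as green reporter fluorescence; hits show the peak of a series up to 25 µM; 1 = signal of infected wells without compound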
PKD1 inh: inhibitors of human PKD1 kinase | Q15139 | PKD1 kinase fluorescence polarization assay | inhibition, %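 (about 10 µM by stock and volumes)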 | 200,000 tested, 0.056% active | AID 797;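 active = inhibition of 50% or more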;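 note: controls were vehicle for no effect and a reference inhibitor for full effect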
Target sequence (Q15139 whole entry, looked up): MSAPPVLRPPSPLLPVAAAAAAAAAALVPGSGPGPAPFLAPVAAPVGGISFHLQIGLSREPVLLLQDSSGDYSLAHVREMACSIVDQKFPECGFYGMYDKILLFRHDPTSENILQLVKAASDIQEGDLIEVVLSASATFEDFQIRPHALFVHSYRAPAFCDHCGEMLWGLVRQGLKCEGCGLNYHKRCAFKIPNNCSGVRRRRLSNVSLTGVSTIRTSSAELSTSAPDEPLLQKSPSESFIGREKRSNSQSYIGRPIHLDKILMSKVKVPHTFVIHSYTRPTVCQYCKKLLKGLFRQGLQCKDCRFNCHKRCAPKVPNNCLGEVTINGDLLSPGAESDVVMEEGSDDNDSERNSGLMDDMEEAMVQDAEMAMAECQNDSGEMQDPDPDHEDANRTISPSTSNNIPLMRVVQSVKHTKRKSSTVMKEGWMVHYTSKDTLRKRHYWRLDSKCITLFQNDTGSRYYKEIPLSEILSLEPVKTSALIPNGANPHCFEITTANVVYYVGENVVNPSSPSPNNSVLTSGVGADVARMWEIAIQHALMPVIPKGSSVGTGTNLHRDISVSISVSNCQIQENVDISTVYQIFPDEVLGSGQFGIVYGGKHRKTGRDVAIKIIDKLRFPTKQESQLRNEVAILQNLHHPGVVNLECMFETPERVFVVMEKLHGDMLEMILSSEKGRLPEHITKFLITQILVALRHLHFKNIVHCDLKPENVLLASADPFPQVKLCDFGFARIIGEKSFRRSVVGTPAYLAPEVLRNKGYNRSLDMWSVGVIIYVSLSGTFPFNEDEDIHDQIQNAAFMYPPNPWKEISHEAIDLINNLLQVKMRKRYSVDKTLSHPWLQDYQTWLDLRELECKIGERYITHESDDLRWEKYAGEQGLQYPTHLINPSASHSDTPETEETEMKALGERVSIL
Insulin prom inh: TRM-6 insulin promoter activity inhibition; TRM-6 cells (human fetal islet line), insulin promoter-eGFP reporter, imaging; reporter expression induced with tamoxifen; inhibition, % at 2 µM; 130,000 tested, 0.9% active; AID 1273;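 active = inhibition above the mean plus 3 SD, with well images judged a real hit on visual review, cut at about 60% in these data, passing the limit was not always enough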
GALR2 ag: GALR2 (human) receptor agonism | O43603 | GALR2-expressing cells, agonist activation read-out | 140,000 tested, 0.48% active | activation, %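 (tested at 5 µM)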;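 active = above mean plus 3 SD of all compounds, about 5% in these data, not always enough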;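 note: 0% = vehicle buffer wells and 100% = reference agonist at full effect; tested in CHO reporter cells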
RGS16-Gao: modulates binding between human RGS16 and Galphao; O15492+P09471; bead-based flow cytometry RGS16-Galphao binding, fluorescence; actives lie on both sides; binding response (% of control), % at 10 µM; 220,000 tested, 0.38% active;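 active = below 25% or above 175%, edge rows of some plates excepted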;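 note: Galphao activated by GDP with aluminum fluoride before binding; 100% = wells without compound and 0% = beads without RGS; some results beyond the cut were filed as inactive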
Insulin prom inh cell count: recorded beside Insulin prom inh, whose call it bears; normalized cell count, %; measured here: cell count, toxicity; reference of the scale not given here;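 cells exposed to compound for 48 h; stained nuclei by imaging scaled within each plate; lower means fewer cells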
HSV replic up primary fold: second read-out of HSV replic up, no call of its own (marks repeat the call); fold increase; compound at 10 µM; measured here: primary screen fold increase 10 uM; tested in PC3 cells;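 GFP signal in the first replicate; 1 = infected wells without compound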
* hit, by the source's call; i = inactive; nt = not tested or not shown.

Molecule	HSV replic up	HSV replic up primary fold	PKD1 inh	Insulin prom inh	Insulin prom inh cell count	GALR2 ag	RGS16-Gao
CC(C)CCOC(=O)C1C(c2ccccc2)C(C(=O)O)C1c1ccccc1 (centres undefined)	i	1	4	0	87	10.0	156
Cc1cc(=O)oc2n[nH]c(-c3ccccc3)c12	nt	nt	6	-21	92	-0.8	99
O=C(NNc1cc(Br)c(O)c(Br)c1)c1ccccc1	i	1	-7	nt	nt	nt	98
Cc1ccccc1NC(=O)C(=O)Nc1ccccc1C	i	1.1	nt	nt	nt	nt	105
O=C1N/C(=C/c2ccc(N3CCOCC3)o2)C(=O)N1c1ccccc1	i	0.73	-2	21	89	-0.4	97
CCCn1c(C)cc(C(=O)CSc2nc3nc(C)cc(C)n3n2)c1C	i	1.1	-2	6	100	0.8	100
O=C1CCN(Cc2ccccc2)CCN1CCO	i	0.82	nt	nt	nt	nt	94
COc1ccc(N2CCC(CNC(=S)Nc3cc(C)ccc3C)C2)cc1 (centres undefined)	i	0.91	nt	nt	nt	nt	102
O=C(O)c1ccc2c(c1)C(=O)/C(=C\c1ccco1)C2=O	i	0.99	3	nt	nt	nt	97
Cn1cc(C(=O)Nc2ccc(F)c(F)c2)cn1	i	0.91	-10	-4	98	-2.1	97
O=C(/C=C/c1ccc(Br)cc1)NC(=O)c1ccccc1O	i	0.88	-5	nt	nt	nt	103
CN(C)c1cccc(C(=O)OCC(=O)N2CCc3ccccc3C2)c1	i	0.99	-5	14	55	nt	107
C/C(=C1/SC(N2CC(C)OC(C)C2)=NC1=O)c1ccccc1 (centres undefined)	i	0.9	1	-54	66	-0.1	94
O=C(O)c1cc2c(ccc3ccccc32)o1	i	0.77	-1	nt	nt	-2.9	97
Cc1cccc(C)c1OC(=O)CSc1nnc(-c2ccccc2)o1	i	0.89	-10	-487	76	-3.3	100
CC1(C)CC2(CCO1)OC(=O)CC2C(=O)Nc1ccc(Br)cc1 (centres undefined)	i	0.91	nt	nt	nt	nt	102
Cn1c(=O)c2c(ncn2CC(=O)N2CCN(c3cccc(Cl)c3)CC2)n(C)c1=O	i	0.97	-12	10	137	3.3	90
O=C(COc1ccccc1)Nc1cccc2nsnc12	i	0.84	-8	-16	120	-1.9	105
COc1ccc(S(=O)(=O)Nc2cc3c(cc2C(C)=O)OCO3)cc1	i	0.64	2	nt	nt	nt	98
COc1ccc(C(=O)Oc2ccc3oc(=O)sc3c2)cc1	i	0.97	-1	14	246	-2.5	89
O=C(O)CSc1nccc2ccccc12	i	1.1	-4	nt	nt	nt	56
O=C(c1cnn2ccccc12)N1CCc2ccccc21	i	0.88	1	nt	nt	-2.2	69
O=C(NCCN1CCN(c2cccc(Cl)c2)CC1)c1ccc(CSc2nc3ccncc3[nH]2)cc1	i	0.94	-7	-33	80	nt	99
O=C(O)c1cccc2c1C(=O)N(C1CCCCC1)C2	i	0.9	-8	nt	nt	-1.4	104
COC(=O)CN(c1ccc(C)c(Cl)c1)S(C)(=O)=O	i	0.98	0	27	84	-0.4	103

Molecule	HSV replic up	HSV replic up primary fold	PKD1 inh	Insulin prom inh	Insulin prom inh cell count	GALR2 ag	RGS16-Gao
CC(C)(C)C1CCc2onc(C(=O)Nc3ccc(F)cc3F)c2C1 (centres undefined)	i	0.92	-4	nt	nt	-0.7	95
CCCOc1ccc(C(CC(=O)O)NC(=O)C23CC4CC(CC(C4)C2)C3)cc1 (centres undefined)	i	1.2	-3	-57	171	-1.4	113
Cc1ccc2c(c1)Sc1ccccc1CC2=O	i	0.94	2	19	70	-0.5	101
CC(C)(C)c1ccc(C(=O)NNc2cc(Cl)cc(Cl)c2)cc1	i	0.94	nt	nt	nt	nt	104
COc1cnc(-c2ccccn2)nc1Sc1ccccc1Cl	i	0.69	-1	nt	nt	-0.5	105
O=C(c1ccc2ccccc2c1)c1c[nH]cc1-c1ccccc1	i	0.83	-3	-6	116	-1.7	105
CCOC(=O)c1c(NC(=O)C[n+]2ccc(Cc3ccccc3)cc2)sc(C)c1C	i	0.95	-7	-38	74	nt	105
CC(=O)N1CC=C2C(C#N)=C(N)C(C#N)(C#N)C(C)C2C1 (centres undefined)	i	1	-7	nt	nt	-1.1	95
CCOC(=O)C1(Cc2ccc(Cl)cc2)CCN(CCCn2cccn2)CC1	i	0.88	1	-44	111	nt	105
CCCN1CCN(C(=O)CCCNC(=O)Cn2cnc3sc(C)c(C)c3c2=O)CC1	i	0.88	0	-14	91	-1.9	104
CC(C)C(=O)Nc1cccc(-c2cn3ccsc3n2)c1	i	0.86	-4	19	142	-1.6	99
OC1CCCN(Cc2c3ccccc3cc3ccccc23)C1 (centres undefined)	i	0.71	5	9	105	-1.7	101
Cc1csc(SC(C)C(=O)NCC2CCCCC2)n1 (centres undefined)	i	1.2	-2	28	93	nt	98
CN(C)c1ccc(NC(=O)CN2CCN(CC(=O)Nc3ccc(F)cc3)CC2)cc1	i	0.95	-3	nt	nt	-0.9	97
CCOC(=O)CSc1nnc(C2CCCCC2)n1C	i	0.97	10	nt	nt	-3.1	103
O=C(CSc1n[nH]c(-c2cccnc2)n1)Nc1ccnc2ccccc12	i	1.1	1	10	59	-2.0	102
O=C(NC1=NCCS1)c1cc(-c2cccc(Br)c2)nc2ccccc12	i	1	11	0	114	-0.2	101
Cc1cc([N+](=O)[O-])ccc1N(C)C	i	0.94	-3	17	196	-0.2	104
O=C(N/N=C/c1ccccc1)c1ccco1	i	1	nt	nt	nt	nt	104
CN(c1ccc(C(=O)N2CCN(Cc3ccc4c(c3)OCO4)CC2)cc1)S(=O)(=O)c1ccccc1	i	0.99	1	47	41	1.2	103
CCN1C(=O)c2cccc3c(S(=O)(=O)N(C(=O)c4cccnc4)c4ccc(OC)cc4)ccc1c23	i	0.89	3	-10	99	0.1	104
CC(=O)Nc1ccc(NC(=O)COc2ccc(S(=O)(=O)NC(C)c3ccccc3)cc2)cc1 (centres undefined)	i	0.98	5	nt	nt	nt	100
CN(C)c1ccc(C(c2nnnn2C(C)(C)C)N2CCN(C(=O)c3ccco3)CC2)cc1 (centres undefined)	i	1	2	-19	100	-2.0	104
CCc1nnc(NC(=O)[C@@H](NC(=O)c2cccc(S(=O)(=O)N3CCOCC3)c2)C(C)C)s1	i	0.85	3	21	71	-1.2	122
O=C1/C(=C/c2ccccn2)SC(=S)N1Cc1ccccc1	i	0.86	nt	nt	nt	nt	100

13 entries already listed, ordered by formula weight, descending.
Molecule	HSV replic up	HSV replic up primary fold	PKD1 inh	Insulin prom inh	Insulin prom inh cell count	GALR2 ag	RGS16-Gao
CCN1C(=O)c2cccc3c(S(=O)(=O)N(C(=O)c4cccnc4)c4ccc(OC)cc4)ccc1c23	i	0.89	3	-10	99	0.1	104
CCc1nnc(NC(=O)[C@@H](NC(=O)c2cccc(S(=O)(=O)N3CCOCC3)c2)C(C)C)s1	i	0.85	3	21	71	-1.2	122
CN(C)c1ccc(NC(=O)CN2CCN(CC(=O)Nc3ccc(F)cc3)CC2)cc1	i	0.95	-3	nt	nt	-0.9	97
O=C(NC1=NCCS1)c1cc(-c2cccc(Br)c2)nc2ccccc12	i	1	11	0	114	-0.2	101
CCOC(=O)c1c(NC(=O)C[n+]2ccc(Cc3ccccc3)cc2)sc(C)c1C	i	0.95	-7	-38	74	nt	105
CC(C)(C)c1ccc(C(=O)NNc2cc(Cl)cc(Cl)c2)cc1	i	0.94	nt	nt	nt	nt	104
Cc1csc(SC(C)C(=O)NCC2CCCCC2)n1 (centres undefined)	i	1.2	-2	28	93	nt	98
CC(C)C(=O)Nc1cccc(-c2cn3ccsc3n2)c1	i	0.86	-4	19	142	-1.6	99
CCOC(=O)CSc1nnc(C2CCCCC2)n1C	i	0.97	10	nt	nt	-3.1	103
CC(=O)N1CC=C2C(C#N)=C(N)C(C#N)(C#N)C(C)C2C1 (centres undefined)	i	1	-7	nt	nt	-1.1	95
Cc1ccc2c(c1)Sc1ccccc1CC2=O	i	0.94	2	19	70	-0.5	101
O=C(N/N=C/c1ccccc1)c1ccco1	i	1	nt	nt	nt	nt	104
Cc1cc([N+](=O)[O-])ccc1N(C)C	i	0.94	-3	17	196	-0.2	104

The list goes on.
Molecule	HSV replic up	HSV replic up primary fold	PKD1 inh	Insulin prom inh	Insulin prom inh cell count	GALR2 ag	RGS16-Gao
CCOC(=O)NCc1ccc2c(c1)cc(C)n2C	i	0.98	-15	nt	nt	-0.9	103
COc1ccc(OC)c(NS(=O)(=O)c2cccs2)c1	i	0.74	-8	23	60	0.8	100
Cc1cc(C)n(/N=C/c2cccc(O)c2)c(=O)c1C(N)=O	i	0.95	1	-50	116	-1.2	89
CCOc1ccccc1NC(=O)C(NC(=O)C1CCC(C)CC1)C(C)C (centres undefined)	i	1	-1	nt	nt	nt	97
CC(=O)Nc1cccc(OCCCNC(=O)c2ccc(C(C)(C)C)cc2)c1	i	0.98	nt	nt	nt	nt	98
C=C(C)CNC(=S)N/N=C(\C)c1ccc(Cl)s1	i	0.86	8	-6	133	0.3	95
CCOc1ccc(-c2nnn(CC(=O)N3CCCC3)n2)cc1OCC	i	0.86	8	nt	nt	0.4	102
COc1ccccc1-c1nnc(SCC(=O)Nc2ccc(Cl)cc2Cl)o1	i	0.88	14	13	101	-1.5	100
O=C(NN=C1C2CC3CC(C2)CC1C3)c1cccs1	i	0.89	0	63	141	-0.5	102
CCNc1nc(N)nc(Oc2ccc(OCc3ccccc3)nn2)n1	i	0.73	0	46	94	-2.5	100
CCCCCc1nc(N)c(C#N)c(-c2ccco2)c1CCCC	i	1.1	11	58	84	-4.1	103
COC(=O)Cn1cnc2sc(C)c(S(=O)(=O)N3CCN(c4ccccc4OC)CC3)c2c1=O	i	0.93	-1	nt	nt	-1.7	97
CCc1ccccc1NC(=O)CN(C)C(=O)COc1ccc(C)nc1[N+](=O)[O-]	i	1.1	-14	19	47	-0.4	102
COc1ccc(CCN(Cc2cc3cccc(C)c3[nH]c2=O)C(=O)N2CCCC2)cc1OC	i	0.59	-4	-3	123	-1.2	110
Cc1ccsc1C(=O)C1CCCN(Cc2cc(F)ccc2-n2cccn2)C1 (centres undefined)	i	1	-3	nt	nt	nt	104
O=C(CN1C(=O)/C(=C\c2cccs2)SC1=S)Nc1cccc(C(=O)O)c1	i	0.95	nt	nt	nt	nt	91
CN1CCCN(C(=O)CC(c2ccccc2)c2ccccc2)CC1	i	0.91	-4	nt	nt	nt	99
CC(/C=C/c1ccc2c(c1)OCO2)=N/NC(=O)C1COc2ccccc2O1 (centres undefined)	i	0.79	-6	-7	113	0.8	102
Cc1ccc(-c2noc(CSc3nnc(CCc4ccccc4)n3-c3ccccc3)n2)cc1	i	0.94	0	-11	112	-0.6	102
COc1cccc(C(=O)C2CCCN(Cc3cccc(-n4nc(C)cc4C)c3)C2)c1 (centres undefined)	i	1	1	nt	nt	nt	101
COc1ccc(-c2cc(C(F)(F)F)n3nc(C(=O)N(C)Cc4ccccc4)cc3n2)cc1OC	i	1	6	30	52	nt	104
O=C(NC1CCCCCC1)C1c2ccccc2C(=O)N1C1CC1 (centres undefined)	i	1	1	nt	nt	-1.9	96
